Source: PubChem
Mtb H37Rv: M. tuberculosis H37Rv growth inhibitors, H37Rv strain (AID 1626). 0.95% of 220,000 active. M. tuberculosis H37Rv growth inhibition; higher % means a stronger effect. inhibition, % at 10 µM, or IC50 in µM where a hit was titrated;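 active means confirmed in a dose series; inconclusive means inhibition above 80% but not taken into the dose series; inactive means below 80% or under 30% at every dose of the series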;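 further: bacteria incubated seven days before Alamar blue readout; 0% = bacteria only wells and 100% = bacteria with antibiotic wells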
Arbovirus anti: blocks arbovirus infection; 0.37% of 200,000 active; arbovirus infection cell-based antiviral screen; inhibition, % at 10 µM; AID 1251;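 active means inhibition from about 30%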;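 further: bluetongue infection of BSR cells; cell survival read as ATP light after 72 h; 0% = infected wells without compound and 100% = uninfected wells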
YopH PTP inh: blocks Yersinia enterocolitica YopH tyrosine phosphatase; fluorescence Ex485/Em525; inhibition, %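 (about 10 µM by stock and volumes)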; 0.16% of 140,000 active; AID 898;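 active means inhibition of 50% or more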;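 further: controls were vehicle for no effect and minimum signal wells for full effect; inactives centre near -20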
Mtb bLac sens: beta-lactam sensitization of Mtb H37Rv. M. tuberculosis H37Rv growth with meropenem, percent inhibition; hits of this screen are not shown here. inhibition, % at 25 µM. 0.27% of 330,000 active;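 active means about 74% or more and at least 40 points above the plate without the antibiotic, then above 30% in a dose series; inconclusive means first-round hits that could not be retested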;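 further: growth measured after seven days incubation then overnight dye step; 0% = bacteria only wells and 100% = bacteria with antibiotic; twin plates without the antibiotic show which effects depend on it; some results filed as inactive read as strong as hits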
RecA splice inh: blocks M. tuberculosis RecA intein splicing; P9WHJ3; cell-free RecA intein splicing, fluorescence; inhibition, %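 (about 9 µM by stock and volumes)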; AID 2221; 0.75% of 290,000 active; in the data active means inhibition above about 30%; inconclusive means no clear call, values can overlap the other calls;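 further: 0% = vehicle wells and 100% = reference inhibitor control wells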
Target sequence (P9WHJ3 whole entry, looked up, canonical isoform): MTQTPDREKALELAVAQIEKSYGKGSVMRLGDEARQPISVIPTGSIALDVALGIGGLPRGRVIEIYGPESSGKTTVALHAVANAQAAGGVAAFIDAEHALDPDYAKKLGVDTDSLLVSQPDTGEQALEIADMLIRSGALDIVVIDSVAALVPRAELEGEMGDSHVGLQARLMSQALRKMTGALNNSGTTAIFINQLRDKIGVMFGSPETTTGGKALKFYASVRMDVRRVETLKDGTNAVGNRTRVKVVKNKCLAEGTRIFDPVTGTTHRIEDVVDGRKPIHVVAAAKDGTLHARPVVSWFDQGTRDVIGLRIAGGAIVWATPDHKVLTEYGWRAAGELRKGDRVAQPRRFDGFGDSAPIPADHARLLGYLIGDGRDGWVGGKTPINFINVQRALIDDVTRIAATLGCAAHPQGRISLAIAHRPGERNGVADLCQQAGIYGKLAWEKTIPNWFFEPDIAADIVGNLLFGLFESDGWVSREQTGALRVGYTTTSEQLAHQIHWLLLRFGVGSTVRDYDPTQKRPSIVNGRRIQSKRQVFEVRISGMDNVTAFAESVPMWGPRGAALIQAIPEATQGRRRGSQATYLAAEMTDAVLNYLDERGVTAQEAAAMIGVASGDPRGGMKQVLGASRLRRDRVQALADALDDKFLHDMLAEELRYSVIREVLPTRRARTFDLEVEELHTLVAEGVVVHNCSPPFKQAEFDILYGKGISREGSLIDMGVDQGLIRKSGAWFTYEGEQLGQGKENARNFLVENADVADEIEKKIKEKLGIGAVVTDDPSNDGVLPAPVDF
Arbovirus anti repeat: also measured in Arbovirus anti; calls as there; inhibition, %; measured here: 10K subset replicate screen; many hits read low in the repeat;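 first of two repeat runs on a subset; 0% = infected and 100% = uninfected wells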
* hit, by the source's call; ? = inconclusive; . = not tested or not shown.

SMILES	Mtb H37Rv	Arbovirus anti	YopH PTP inh	Mtb bLac sens	RecA splice inh	others
Cc1ccc(NNC2CC(=O)N(c3cccc(Cl)c3)C2=O)cc1 (configuration not stated)	?	-25	.	.	.
Cn1c(=O)nc2n(Cc3ccccc3)c3cccc(Cl)c3cc-2c1=O	-5%	6	-16	-2	-27
Clc1ccc(-c2cc(COc3ccccc3)on2)cc1	9%	14	.	-4	-1.5
CCCCNC(=S)N/N=C1\C(=O)c2cccc3cccc1c23	-3%	5	-4	-15	2.7
CN(C)c1nc(NC(C)(C)C)nc(SCC(=O)Nc2ccccc2)n1	6%	3	.	-4	-0.1
Cc1nc(Nc2cccc(Cl)c2)c2oc3ccccc3c2n1	.	.	.	?	0.0
Cc1c(NC2(C#N)CCCCC2)c(=O)n(-c2ccccc2)n1C	-1%	-1	.	-11	-2.2
Cn1nc(C(=O)N2CCN(c3cccc(Cl)c3)CC2)c2c1-c1ccccc1S(=O)(=O)C2	.	.	.	6	3.0
CC(C)NC(=O)C(=O)NCC(c1ccc2c(c1)OCO2)N1CCOCC1 (configuration not stated)	.	.	.	1	3.5
O=C1CC(c2ccccc2)n2nc(N3C(=O)CCC3=O)nc2N1 (configuration not stated)	-19%	4	-6	-2	-0.4	Arbovirus anti repeat=3
Cc1cccc(N2CCN(C(=S)Nc3ccc4nc5n(c(=O)c4c3)CCCCC5)CC2)c1C	-2%	-20	.	9	-7.6
Cc1cccc(NC(=O)C2CCN(C(=O)N3CCOc4ccccc43)CC2)c1C	.	.	.	-3	0.9
COCCOC(=O)c1c(NC(=O)CN2CCCc3ccccc32)sc(C(N)=O)c1C	-4%	2	-1	2	-2.0
CCN1CC(CN(C)Cc2nc(COc3ccccc3)no2)CC1=O (configuration not stated)	-5%	1	.	-11	-0.4
Cc1ccc(SCC(=O)Nc2ccc(S(=O)(=O)Nc3nccs3)cc2)cc1	14%	12	1	57	-7.0
Cc1nn(C(C)C(=O)N2CCc3ccccc3C2)c(=O)c2cc3occc3n12 (configuration not stated)	1%	5	-15	-10	-0.8
COc1ccccc1NC(=O)c1cccnc1	-12%	1	-18	2	0.4
CN(C)S(=O)(=O)Oc1ccsc1C(=O)Nc1ccc(C(F)(F)F)cc1	3%	2	.	91	-0.9
COC(=O)COc1cccc2c(=O)n(CC(=O)NCc3ccc(F)cc3)ccc12	2%	-8	.	10	-0.1
Cc1ccc(S(=O)(=O)N2CCN(Cc3ccccc3)CC2)cc1	.	.	.	-1	4.1
NC(=O)c1cccc(S(=O)(=O)N2CCCCC2)c1	1%	5	6	-4	-0.2
CCN(CC(=O)Nc1ccc(OC)c(OC)c1)CC(=O)Nc1ccccc1C(F)(F)F	.	.	.	56	-0.2
CC(C)N(CCc1ccncc1)C(=O)Nc1ccc(Cl)c(Cl)c1	-3%	1	-35	-7	4.3	Arbovirus anti repeat=-11
Cc1ccc(C(C(=O)NC2CCCCC2)N(Cc2ccccc2)C(=O)Cc2c[nH]c3ccccc23)o1 (configuration not stated)	15%	-22	-18	2	0.9
Cn1nc(C(=O)NNC(=O)c2ccc(Cl)cc2)ccc1=O	.	.	.	-10	-2.0
Next entries
SMILES	Mtb H37Rv	Arbovirus anti	YopH PTP inh	Mtb bLac sens	RecA splice inh	others
Cc1nc(N2CCN(Cc3ccc(Cl)cc3)CC2)c2oc3ccccc3c2n1	16µM*	.	.	99	3.5
Cc1cccc(C(=O)NC2CCN(S(=O)(=O)c3ccccc3F)CC2)c1	.	.	.	-24	2.0
COCC(C)NC(=O)CCS(=O)(=O)c1nc(-c2ccc(OC)cc2)cc(C(F)(F)F)n1 (configuration not stated)	-4%	-31	-38	21	33*
CCCc1nnc(SCC(=O)N2CCCC(C)C2)n1CCOC (configuration not stated)	5%	-1	.	3	0.3
CCOC(=O)/C(C#N)=C/Nc1ccccc1NS(=O)(=O)c1cccc(C(C)=O)c1	0%	20	.	-1	.
CCCCCOC(=O)C1C(c2ccccc2)C(C(=O)O)C1c1ccccc1 (configuration not stated)	1%	16	-38	-2	3.0
Cc1cc2c(N=O)c(NO)ccc2[nH]1	?	-34	-32	100	11
Cc1ccccc1C(=O)Nc1ccc(Br)c(C)n1	5%	3	-20	-2	4.5
Cc1ccccc1S(=O)(=O)NCc1ccc(N2CCN(C)CC2)cc1	-5%	.	.	3	-0.3
O=C(NCCNC(=O)c1ccccn1)c1ccc(Cl)cc1	.	.	.	-10	-0.6
O=C(NCc1ccc2c(c1)OCO2)c1cccc(S(=O)(=O)N2CCCCC2)c1	-1%	-6	-6	-3	-0.7
Cc1ccc(N=C(NO)c2nonc2N)cc1	1%	-2	-20	1	.
CN(C(=O)c1ccc2c(c1)OCO2)C1(C(=O)NC2CCCCC2)CCCCC1	-1%	18	-9	4	0.5	Arbovirus anti repeat=6
CC(C)c1ccc(NC(=O)COC(=O)/C=C/c2cccc([N+](=O)[O-])c2)cc1	70%	-7	-12	44	1.1
Cc1ccc(CC(=O)Nc2ccc([N+](=O)[O-])cc2C)cc1	7%	6	.	-19	1.3
O=C(Nc1ccnn1C1CCN(Cc2ccccc2)CC1)C1CCCC1	.	.	.	-1	-3.1
COc1cc(C(=O)N2CCN(c3cccc(C)c3C)CC2)cc(OC)c1OC	0%	-1	-10	-2	5.9	Arbovirus anti repeat=-1
O=C(CCCN1C(=O)/C(=C/c2ccccc2)SC1=S)N1CCOCC1	.	.	.	11	11
Cn1cccc1/C=C1\SC(=S)N(Nc2ccccc2)C1=O	20%	.	.	44	-1.5
CCCCn1c(N)c(N(CCOC)C(=O)c2ccc(S(=O)(=O)N(CC)c3ccccc3)cc2)c(=O)[nH]c1=O	.	.	.	-3	2.4
CCOC(=O)CCNC(=O)Nc1ccc2nc(C)n(Cc3ccc(Cl)cc3)c(=O)c2c1	6%	6	-39	3	.
COc1ccccc1CN1C[C@@H]2C[C@@H](c3ccc(C)c(C)c3)N3CCC[C@@]23C1=O	-1%	-11	.	2	1.8
COc1ccc(Cc2nc(-c3ccc(Cl)cc3)no2)cc1	-7%	-1	-106	4	2.8
CC1(C)C(=O)OC(c2c3ccccc3cc3ccccc23)C(C)(C)C1=O (configuration not stated)	3%	.	.	-1	3.8
Cc1cccc(CN2C[C@]34C=C[C@@H](C[C@@H]3S2(=O)=O)O4)c1	-7%	.	.	-9	0.1
(further entries)
SMILES	Mtb H37Rv	Arbovirus anti	YopH PTP inh	Mtb bLac sens	RecA splice inh	others
COc1ccc(/C=N/N=C2/NC(=O)CC(C(=O)O)S2)cc1 (configuration not stated)	0%	3	-16	0	-2.8
OCCCc1cn(-c2ccccc2)c2ccccc12	-11%	-7	.	.	5.7
CC(=O)Nc1ccc(OCC(O)CN2CCN(c3ccccc3Cl)CC2)cc1 (configuration not stated)	5%	-11	33	8	3.1
CCN1C(=O)CC(C(=O)NCCc2ccc(S(N)(=O)=O)cc2)SC1=Nc1ccc(OC)cc1 (configuration not stated)	-1%	0	.	-3	0.9
COc1cc(C(=O)O)cc(Br)c1OC1CCCC1	6%	3	-44	1	-1.3
CCOP(=O)(OCC)c1nc(-c2ccc(Cl)cc2Cl)oc1N1CCOCC1	-4%	-4	.	-5	4.6
CCCCC(=O)NC1(C(F)(F)F)C(=O)Nc2c1c(=O)n(C)c(=O)n2C (configuration not stated)	0%	5	-53	-11	-0.9
CC(C)OCCCNC(=S)NNC(=O)C(c1ccccc1)c1ccccc1	3%	-6	.	-4	0.5
O=C1c2nc3cc(-c4ccco4)[nH]n3c(=O)c2CN1C1CCCCC1	-11%	.	.	-4	2.4
O=C(Nc1ccn(Cc2ccccc2F)n1)c1ccc(COc2ccc(Br)cc2)cc1	53%	-4	-11	71	0.0
COc1ccc(OC)c2sc(N(CCCN(C)C)C(=O)c3ccc(S(=O)(=O)N4CCc5ccccc5C4)cc3)nc12	.	.	.	-4	1.3
Clc1ccc(NC2(c3nnnn3C3CCCCC3)CCCCC2)cc1	-2%	-2	-2	6	-0.3
O=C(O)CC/C(=N/NC(=O)CNC(=O)C(c1ccccc1)c1ccccc1)c1ccccc1	4%	.	.	3	1.9
Cc1ccc(C)c(S(=O)(=O)N2CCCOC2CNC(=O)C(=O)NCc2ccc3c(c2)OCO3)c1 (configuration not stated)	.	.	.	-12	0.8
COc1cccc2cc(C(C)N(CCCN3CCOCC3)C(=S)Nc3cccc(C)c3)oc12 (configuration not stated)	6%	10	.	-6	-2.7
Fc1ccc(CSc2ncnc3c2oc2ccccc23)cc1	16%	-5	-45	-2	.
COc1ccc(C)cc1NC(=O)CCS(=O)(=O)c1cccc2nonc12	3%	6	7	19	-1.4
Cc1cc(C)c2sc(N(CCCN(C)C)C(=O)c3ccc(S(=O)(=O)N(C)C4CCCCC4)cc3)nc2c1	.	.	.	99	15
Cc1nnc2n(-c3ccccc3)c(=O)c3c4c(sc3n12)CCCC4	9%	2	-9	-2	.
CCCCNC(=O)N(C)c1nncnc1C(=O)NC	-10%	0	-6	-1	-2.0
CCCCOc1ccccc1C1C(C(N)=O)=C(C)Nc2nnnn21 (configuration not stated)	-9%	1	-1	4	-0.3
CCOc1cc(/C=C2/C(=O)ON=C2C)ccc1OCc1ccccc1F	4%	-20	21	4	-0.9
COC(=O)c1ccc(C(C(=O)NC2CCCCC2)N(CCN2CCOCC2)C(=O)Cc2cccs2)cc1 (configuration not stated)	-2%	15	.	-2	-0.1
CC(=O)Nc1ccc(NC(=O)C(C)OC(=O)C2CCC2)cc1 (configuration not stated)	.	.	.	-5	1.0
CCCCCC(=O)NNC(=O)c1c(O)c2ccccc2n(CC)c1=O	3%	-16	.	-6	-2.6
Further compounds.
SMILES	Mtb H37Rv	Arbovirus anti	YopH PTP inh	Mtb bLac sens	RecA splice inh	others
O=C(NCCc1ccccc1)c1ccco1	2%	1	-9	-13	-0.3
CCc1ccc2[nH]c(=O)c(CN(Cc3ccco3)C(=S)NCC3CCCO3)cc2c1 (configuration not stated)	0%	-10	.	1	7.0
CCc1ccc(CNCc2cccnc2)cc1	-1%	1	-32	-1	-1.3
O=C(COC(=O)Cc1ccc(S(=O)(=O)N2CCCCC2)s1)Nc1ccc2c(c1)OCO2	4%	4	-26	.	-2.8
CC(CCC(=O)O)C1CC[C@H]2C3CCC4CC(=O)CCC4(C)[C@H]3CC(=O)C12C (some centres not stated)	.	.	.	-2	-1.8
O=C(O)c1cc(NC(=O)c2ccc3c(c2)C(=O)N(Cc2cccnc2)C3=O)cc(C(=O)O)c1	.	.	.	1	0.3
CCCOc1ccc(C(=O)NC(=S)N2C[C@H]3C[C@H](C2)c2cccc(=O)n2C3)cc1	.	.	.	0	8.4
O=C1Nc2ncccc2OC1CCO (configuration not stated)	-9%	1	-11	-10	3.7
CCOc1ccccc1N(C(=O)Cn1nnnc1-c1ccc(C)o1)C(CC)C(=O)NC(C)(C)C (configuration not stated)	-10%	-5	-15	-7	1.2
Cc1c(C(=O)OCCOc2ccc(Br)cc2)sc(=S)n1C	7%	7	.	4	-0.7
CC(C)CCNC(=O)CN(C(=O)CCC(=O)Nc1ccccn1)c1ccc2c(c1)OCO2	-4%	-6	-19	-6	-6.6

These rows are one share of the data (hit frequency here may not be typical).
